# Screens (PubChem BioAssay)
# Vaccinia Venus – qHTS for Stage-Specific Inhibitors of Vaccinia Orthopoxvirus: Venus Reporter Primary qHTS; AID 720580, 2013; Potency, µM (top dose mostly 36.5 µM), for inactives: at the highest dose activity change, negative = inhibition, hits mostly inhibitors; actives 0.46% (n = 330,000); Vaccinia virus Venus reporter expression, fluorescence; active means well fitted inhibition curve with a large enough effect; inconclusive means small, poorly fitted or top-dose-only effect; inactive means no such curve, though single readings can be large or run the other way; tested in A549 cells; note: nearly all actives have a fitted effect of over 30% in size; inactives centre near -10
# Vaccinia mCherry – qHTS for Stage-Specific Inhibitors of Vaccinia Orthopoxvirus: mCherry Reporter Primary qHTS; Vaccinia virus mCherry reporter infection, fluorescence; about a quarter of the inactives have no number; Potency, µM (titrated, usually from 36.5 µM), inactives show at the highest dose activity change, negative = inhibition, most hits filed as inhibitors; actives 0.63% (n = 310,000); active = well fitted inhibition curve with a large enough effect; inconclusive = small, poorly fitted or top-dose-only effect; inactive = no such curve, though single readings can be large or run the other way; tested in A549 cells; note: nearly all actives have a fitted effect of over 35% in size; inactives centre near -10
# * marks the source's active call; other numbers are inactive results; i = inactive; ? = inconclusive; / = no result given; & = joins results of further samples; [ ] = dose if it differs, or a comment. % is set by controls: 0 for no effect and ±100 for the full control effect; potency is the fitted concentration of half-maximal effect.
Structure	Vaccinia Venus	Vaccinia mCherry
Cc1nc2sc(C(c3cccs3)N3CCN(C(=O)c4ccco4)CC3)c(O)n2n1 (stereo not drawn)	-2%	-13%
N#CC1=C(N)Oc2cc3ccccc3cc2C1c1cccnc1 (stereo not drawn)	?	?
O=C(c1ccc2c(c1)C(=O)N(Cc1ccco1)C2O)N1CCOCC1 (stereo not drawn)	-8%	0%
COC(=O)CSc1nc(C2CC2)nc2ccccc12	-9%	-1%
COc1ccc2c(C(F)(F)F)cc(=O)oc2c1C	-16%	-14%
CC(C)Oc1cccc(C(=O)NC(=S)Nc2ccccc2)c1	-9%	i
C/C(N)=C(/C#N)C(=O)COC(=O)c1ccccc1C(=O)c1ccc(C)cc1	-17%	-9%
CC(=O)C1=C(O)C(=O)N(CCc2c[nH]c3ccccc23)C1c1ccc(C)cc1 (stereo not drawn)	-2%	i
Cn1c(O)c(C(c2ccccn2)c2c(O)n(C)c(=S)n(C)c2=O)c(=O)n(C)c1=S	7%	/
Cc1nc2ccc(NC(=O)c3c(-c4ccccc4)noc3C)cc2s1	?	/
CCC1=NN(C(=O)c2ccc(Br)cc2)C(O)(c2ccccc2)C1 (stereo not drawn)	-16%	-9%
COc1cccc2c1cc1c(=O)n(CC(=O)N3CCN(c4cccc(C(F)(F)F)c4)CC3)nc(C)n12	-7%	-17%
COc1ccc(Cl)cc1NC(=O)CSc1nc(-c2cccs2)cc(C(F)(F)F)n1	-9%	-23%
CCc1ccc(CNC(=O)CN2CCSc3ccccc32)cc1	17%	4%
COc1ccc(C2(CNC(=O)c3cccc([N+](=O)[O-])c3)CCCCC2)cc1OC	1%	-7%
CC1=C(C(=O)OCCNC(=O)c2cccnc2)C(c2cccc([N+](=O)[O-])c2)C(C(=O)OCCN(C)C)=C(C)N1 (stereo not drawn)	-16%	i
CCCS(=O)(=O)c1ccc(COC(=O)c2cccc(NC(=O)C(C)C)c2)cc1	-29%	?
COc1cccc(C2c3[nH]c4ccccc4c3CCN2Cc2cnc(C)s2)c1OC (stereo not drawn)	-12%	-21%
CC1(C(=O)OCC(=O)NC(=O)c2ccccc2)CC1(Cl)Cl (stereo not drawn)	-15%	-19%
CC(C)(C)c1ccc(S(=O)(=O)N(CCCN2CCOCC2)Cc2cccs2)cc1	4%&-20%	5%&-26%
Cc1c(N/N=C(\C#N)C(=O)c2ccc(Cl)cc2)c(=O)n(-c2ccccc2)n1C	?	11µM*
CCOC(=O)c1ccccc1NC(=O)CSc1nc2ccccc2n1CC(=O)N1CCCC1	-5%	-15%
Cc1cc(C)cc(Nc2nc3ccc(C)cc3n3cnnc23)c1	-23%	-21%
CCOC(=O)c1cccc(NC(=O)COC)c1	-13%	/
CCN(CCCNC(=O)c1ccc(Sc2ccc(Cl)cc2)c(NC(C)=O)c1)c1cccc(C)c1	-16%	-10%
CCC(C)[C@@H](NC(=O)OC(C)(C)C)c1nnc(S(=O)(=O)Cc2cccc(C)c2)o1 (stereo partly drawn)	?	/
C#CCOc1ccc2c3c(c(=O)oc2c1)CCCC3	-20%	-14%
COc1ccccc1-c1cc(C(=O)NCc2ccc(F)cc2)no1	-19%	-27%
CNC(=S)N/N=C/c1ccc(N(C)C)cc1	-13%	i
COC(=O)CNC(=O)C12CC3(C)CC(C)(CC(C)(C3)C1)C2	-5%	-17%
CC(C)c1onc(C(=O)N2CCN(c3ccc(F)cc3)CC2)c1[N+](=O)[O-]	-4%[7.34 µM]	-14%[7.34 µM]
Cc1cccc(CCNS(=O)(=O)c2cnc[nH]2)c1	3%	-5%
CC(=O)Nc1ccc2c(c1)CCCN2C(=O)c1ccccc1	-10%	/
NC(=O)c1c(NC(=O)COC(=O)CSc2nnc(-c3ccc(Cl)cc3)o2)sc2c1CCC2	-6%	-16%
CCCCN(CCCC)S(=O)(=O)c1ccc(C(=O)Nc2nnc(COC)o2)cc1	?	?
O=C(CN1C=NS(=O)(=O)c2ccccc21)Nc1ccc(F)cc1	-4%	-11%
CCOC(=O)/C(=C/C=C1\Sc2ccccc2N1CC)C(C)=O	-25%	-18%
Cc1ccc2sc(NC(=O)c3ccc4c(c3)OCCO4)nc2c1C	-5%[7.34 µM]	2%[7.34 µM]
O=C(CCN=C1NS(=O)(=O)c2ccccc21)OCc1nnc(-c2ccccc2)o1	-6%	-12%
COc1ccc(C2CC(=O)c3cc(-c4nc(-c5cccc([N+](=O)[O-])c5)cs4)c(=O)n(-c4ccc(OC)cc4)c3C2)cc1 (stereo not drawn)	-2%	-3%
CCOc1ccccc1C(=O)NCC(=O)Nc1ccc(-c2ccccc2)cc1	-4%	-14%
O=C1CCCN1CCCNc1ccc2nnc(CCC(=O)N3CCN(c4ccc(F)cc4)CC3)n2n1	-3%[7.34 µM]	-10%[7.34 µM]
CCCN(CCC)C(=O)CSc1nc2n[nH]c(C)c2c(=N)n1-c1ccc(OCC)cc1	?	/
CC(=O)c1cccc(NC(=O)c2ccc(NC(=O)CC3SC(N4CCCCC4)=NC3=O)cc2)c1 (stereo not drawn)	-6%	-2%
Cc1cccc(C(=O)Nc2nnc(S(=O)(=O)N3c4ccccc4CC3C)s2)c1 (stereo not drawn)	-29%	-16%
CCC(C)c1ccccc1NC(=O)COC(=O)CCc1cc(OC)c(OC)c(OC)c1 (stereo not drawn)	-10%	-12%
Cn1ncc(=S)[nH]c1=S	5%	i
CCOc1cccc(C(=O)Nc2ccc(N3CCN(S(C)(=O)=O)CC3)cc2)c1	-19%	i
Cn1c(SCc2ccc(Br)cc2)nc2ccccc2c1=O	-13%	-21%
O=C(Nc1ccc(Oc2ccccc2)nc1)C1CCN(Cc2ccco2)CC1	-10%	-23%
CN(C)c1ccc(C(=O)c2ccc(O)cc2O)cc1	-18%	?
CCCCNc1cccc2c1S(=O)(=O)N(CCCC)CC(COCc1ccccc1)O2 (stereo not drawn)	0%	i
CC1(C)OC(=O)C2=C(C[C@@H](C3CCCCC3)O[C@H]2c2ccccc2)O1	-3%	-4%
CCc1nc2nc(C)c(NS(=O)(=O)c3ccc4c(c3)CCCC4)c(=O)n2[nH]1	-10%	-12%
O=C(C1CCC1)N1CCN(c2ccc(Cl)cc2)CC1	-9%	-13%
CSCCC(NC(=O)c1ccc(C(C)(C)C)cc1)C(=O)O (stereo not drawn)	3%	-14%
COC(=O)CSc1nc(C)c(C)c(C)c1C(N)=O	-4%	i
O=C(c1ccc2c(Cl)c3c(nc2c1)CCCC3)N1CCN(c2ccccc2F)CC1	-6%	-7%
Cc1cc(Br)cn2c(CC(C)(C)C)c(C3CCCCC3)nc12	-8%	2%
Cn1cccc1C(=O)NC(=O)COC(=O)c1ccc(S(C)(=O)=O)cc1	-22%	-6%

# (listing goes on)
Structure	Vaccinia Venus	Vaccinia mCherry
Cc1cc(OCC(=O)N2CCc3ccccc3C2)c(C)cc1Br	-15%	i
O=C(OCc1nnc(-c2ccccc2)o1)c1ccccc1	5%	1%
COc1ccc(C2CC(C(F)(F)F)n3nc(C(=O)N(C)Cc4cn(C)nc4C)c(Cl)c3N2)cc1 (stereo not drawn)	-8%	/
COC(CNC(=O)c1ccc(CS(=O)(=O)c2c(Cl)cccc2Cl)o1)OC	-8%	-6%
COc1cccc(CNC(=O)C2CCN(Cc3cnn(-c4ccccc4)c3-n3cccc3)CC2)c1	-9%	-13%
CCN1c2ccc(S(=O)(=O)N3CCOCC3)cc2N(Cc2ccc(OC)cc2)C1C (stereo not drawn)	-3%	-3%
Cc1ccc(S(=O)(=O)N2CCC(=O)N(CCOCc3ccc(C(F)(F)F)cc3)CC2)cc1	?	?
Cc1cc(C)cc(NC(=O)NCc2c(-n3cccc3)sc3c2CCCC3)c1	-1%	-11%
CC(OC(=O)Cc1n[nH]c(=O)c2ccccc12)C(=O)Nc1ccc(F)cc1Cl (stereo not drawn)	-13%	-12%
COc1cc2c(c(NC(C)=O)c1)N(C(C)=O)CCC2	-14%	-14%
COC(=O)C1=C(C)NC(=O)NC1c1ccc([N+](=O)[O-])o1 (stereo not drawn)	-9%	i
COc1ccc(-c2nnc(SCc3ccc(C(=O)O)cc3)n2N)cc1	7%	i
CCOc1ccc(CNC(=O)Cc2ccc(NC(=O)N3CCCCc4ccccc43)cc2)cc1OC	-4%	-20%
CN1CCN(c2ccc(CNC(=O)C3(C)Cc4c(-c5ccccc5)ccnc4O3)cc2)CC1 (stereo not drawn)	-16%	-14%
N#Cc1nc(/C=C/c2ccc(F)cc2)oc1NC1CCCCC1	-11%	-7%
C[C@H](NC(=O)[C@@H]1CCCN1C(=O)[C@@H]1CCCN1C(=O)OC(C)(C)C)c1ccccc1	-1%	-1%
COCCN(C(=O)COC(=O)Cc1ccc(Cl)cc1Cl)c1c(N)n(Cc2ccccc2)c(=O)[nH]c1=O	-25%	i
COc1ccc(Br)c2c1-c1nc(NC(=O)c3ccccc3F)sc1C2	-22%	-22%
O=C(O)c1ccc(CNCc2ccccc2F)cc1	-14%	-17%
CCOC(=O)c1sc(NC(=O)CSc2nnc(-c3ccco3)o2)c(C(=O)OCC)c1C	-18%	i
CCN(CC)S(=O)(=O)c1ccc(OC)c(NC(=O)CSc2ccccc2)c1	-13%	-21%
CCOC(=O)CCCNC(=O)CCNC(=O)c1ccc(OCC(C)C)cc1	1%	-12%
O=C(C(O)c1ccccc1)N1CCN(S(=O)(=O)c2ccc(C(F)(F)F)cc2)CC1 (stereo not drawn)	-11%	-15%
Cn1cccc1CC(=O)N/N=C/c1cc([N+](=O)[O-])ccc1Cl	1%	-3%

# Nothing new here: an excerpt of the list.
Structure	Vaccinia Venus	Vaccinia mCherry
CCOC(=O)CCCNC(=O)CCNC(=O)c1ccc(OCC(C)C)cc1	1%	-12%
O=C(C(O)c1ccccc1)N1CCN(S(=O)(=O)c2ccc(C(F)(F)F)cc2)CC1 (stereo not drawn)	-11%	-15%
Cn1cccc1CC(=O)N/N=C/c1cc([N+](=O)[O-])ccc1Cl	1%	-3%

# New compounds follow.
Structure	Vaccinia Venus	Vaccinia mCherry
CC(OC(=O)c1ccc2c(c1)OCO2)C(=O)NC1CCCCC1C (stereo not drawn)	-8%	-11%
COc1ccc(N2C(=O)C(CC(=O)Nc3ccccc3)N(CCc3ccc(OC)c(OC)c3)C2=O)cc1 (stereo not drawn)	-17%	i
CCCCCCCCNC(=O)CCNC(=O)c1ccc(C(C)(C)C)cc1	-12%	-14%
O=C(NCc1ccc2c(c1)OCO2)C1CCCN1C(=O)Nc1ccccc1 (stereo not drawn)	-5%	-1%
COCCn1c(SCC(=O)c2ccc(OC)cc2)nc2cc(C(=O)NC3CCCC3)ccc2c1=O	3%	-8%
COc1ccc(C(=O)Nc2ccc(CN3CCOCC3)cc2)cc1	-11%	-15%
Cc1onc(-c2ccccc2)c1NC(=O)Nc1c(-c2ccccc2)noc1C	1%	-9%
CCCCNC(=O)C1(C)CCCCN1C(=O)c1ccc(C)c(F)c1 (stereo not drawn)	9%	6%
O=C(OCc1ccccc1)c1ccccc1O	-2%	1%
Cc1ccc(CNC(=O)Cn2c([N+](=O)[O-])cnc2C)cc1	-1%	-7%
COc1cc(/C=N/NC(=O)CCC(=O)Nc2ccc(Br)cc2)ccc1O	-19%	-4%
CS(=O)(=O)N1CCN(c2ccc(NC(=O)c3ccccc3)cc2)CC1	-6%	i
O=C(CN1C(=O)CSC1=O)N1CCCCC1	-17%	/
CC(NC(=O)C(c1ccccc1)c1ccccc1)c1ccc(S(N)(=O)=O)cc1 (stereo not drawn)	0%	-13%
CC(=O)c1ccc(NC(=O)Cn2c(=O)oc3ccccc32)cc1	-11%	-21%
c1ccc(-c2nnc3n2-c2ccccc2SC3)cc1	-7%	i
O=Cc1ccc(Oc2ccc(F)cc2)nc1	-13%	-3%
Cc1c(N/C(=N/S(=O)(=O)c2ccccc2)c2ccc(Cl)cc2)c(=O)n(-c2ccccc2)n1C	-9%	0%
COc1ccc2sc(-c3ccc(S(C)(=O)=O)cc3)c(C(=O)NCCCN3CCCC3=O)c2c1	-1%	i
O=C(CSC1CC(=O)N(c2ccc(C(=O)O)cc2)C1=O)Nc1ccc2ccccc2c1 (stereo not drawn)	-2%	-4%
CC(Cc1ccccc1)=NNc1ccc([N+](=O)[O-])cc1[N+](=O)[O-]	1%	-22%
COc1cc(-c2nnc(SCC(=O)/C(C#N)=C(\C)N)o2)cc(OC)c1OC	-8%	-4%
CC(C)CN1C(=O)c2ccccc2C1c1nnnn1-c1ccc2c(c1)OCCO2 (stereo not drawn)	11%	-1%
NC(=O)Cc1ccc(C(=O)CSc2nnc(-c3ccncc3)n2C2CC2)s1	7%	-15%
CCNC(=O)C12CCC(C)(c3nc4cc(C)c(C)cc4nc31)C2(C)C (stereo not drawn)	-6%	-15%
COc1ccccc1OCC(=O)Nc1cc(C(F)(F)F)ccc1-n1cncn1	-11%	-5%
CC(=O)Nc1ccccc1N(CC(O)Cn1c2ccccc2c2ccccc21)S(=O)(=O)c1ccc(C)cc1 (stereo not drawn)	?	-22%
Cc1cc(NC(=O)C(=O)c2cn(C)c3ccccc23)no1	-8%	i
COc1ccc(C)cc1N(CC(=O)N1CCC(C)CC1)S(=O)(=O)c1ccc(C)cc1	-3%	i
